# Bioassay records as filed in PubChem BioAssay.
# Rango release inh: inhibitors of RanGTP-induced Rango-importin beta complex dissociation. O95149+P62826. Biochemical FRET Rango-importin beta, RanGTP-induced dissociation. Potency, µM (doses to about 46.1 µM), inactives show at the highest dose activity change, negative = inhibition. 340,000 tested, 0.071% active; active means falling FRET ratio curve, often poorly fitted, with flat reads before Ran was added; inconclusive means other falling curves, or compound fluorescence or quenching; inactive means flat or rising ratio curve;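 also: potency is read from the fitted curve at half-maximal effect; % of control where 0% means no effect; nearly all actives have a fitted effect of over 45% in size; -100% = wells without RanGTP and RCC1; the record marks most hits as doubtful in a second field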
#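 Recombinant Rango FRET biosensor (EYFP–snurportin 1 IBB–cerulean CFP10) at 0.1 uM premixed with 0.25 uM importin beta in PBS, 1 mM DTT, 0.02% Tween-20, 0.1% BSA. Compound added 5 min; RanGTP-RCC1 (0.6 uM Ran, 2 mM GTP, 0.2 uM RCC1) then triggers release, read at 45 min.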
# Rango complex inh: Rango-importin beta binding inhibition; Q14974; Rango CFP/YFP FRET sensor + importin beta, 45 min; Potency, µM (top dose mostly 92.2 µM), for inactives: top-dose inhibition of complex formation; 340,000 tested, 0.031% active; AID 540263; active = rising FRET ratio curve, often small or poorly fitted; inconclusive = mostly compound fluorescence or quenching in the first reads; inactive = flat curves in all reads;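 also: potency is read from the fitted curve at half-maximal effect; 0% = DMSO wells and 100% = buffer wells lacking importin beta; nearly all actives have a fitted effect of over 15% in size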
# Target sequence (Q14974 whole entry, looked up): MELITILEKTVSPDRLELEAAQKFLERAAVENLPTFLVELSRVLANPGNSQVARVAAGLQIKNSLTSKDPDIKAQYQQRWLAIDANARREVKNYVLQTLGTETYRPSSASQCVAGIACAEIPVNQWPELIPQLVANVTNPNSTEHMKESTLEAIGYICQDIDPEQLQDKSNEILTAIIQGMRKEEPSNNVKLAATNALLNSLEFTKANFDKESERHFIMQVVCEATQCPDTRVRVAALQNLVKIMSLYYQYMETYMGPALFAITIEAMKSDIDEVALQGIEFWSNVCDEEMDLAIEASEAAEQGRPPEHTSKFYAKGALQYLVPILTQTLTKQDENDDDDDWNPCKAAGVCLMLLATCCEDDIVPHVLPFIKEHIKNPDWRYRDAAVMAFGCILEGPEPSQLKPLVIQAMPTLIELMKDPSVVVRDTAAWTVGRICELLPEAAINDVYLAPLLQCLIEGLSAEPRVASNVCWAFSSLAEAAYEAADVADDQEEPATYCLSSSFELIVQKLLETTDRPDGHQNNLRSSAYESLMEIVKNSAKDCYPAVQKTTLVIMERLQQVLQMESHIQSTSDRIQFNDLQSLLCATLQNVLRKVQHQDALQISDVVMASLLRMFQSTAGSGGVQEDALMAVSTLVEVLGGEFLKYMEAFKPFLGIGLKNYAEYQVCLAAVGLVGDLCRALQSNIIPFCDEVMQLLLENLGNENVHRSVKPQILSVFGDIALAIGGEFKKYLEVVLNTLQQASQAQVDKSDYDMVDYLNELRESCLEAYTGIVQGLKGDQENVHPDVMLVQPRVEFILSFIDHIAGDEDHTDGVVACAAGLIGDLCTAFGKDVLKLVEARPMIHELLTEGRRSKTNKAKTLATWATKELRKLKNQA
#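 Inhibition scored from the CFP 486 nm/YFP 530 nm FRET ratio 45 min after adding 0.125 microM importin beta to 50 nM Rango biosensor preincubated 5 min with compound (room temperature, PBS with DTT, Tween-20, BSA). No-importin wells as positive control.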
# GLA inh pH 4.5: inhibitors of human alpha-galactosidase A at pH 4.5. P06280. purified enzyme, 4-MU-alpha-Gal fluorescence, pH 4.5. activity change, negative = inhibition, % at 105 µM. 230,000 tested, under 10 active; inconclusive = small, poorly fitted or top-dose-only inhibition, or a rising curve; inactive = flat fitted curve, though single readings scatter; no compound was filed as active;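 also: 0% = full activity with enzyme and -100% = basal without enzyme; dose as in the result columns while the protocol names 77 µM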
# miR-21 reporter: raises the signal of a miR-21 reporter; HeLa miR-21 FLuc reporter, luciferase, 48 h; Potency, µM (series often up to 38.3 µM), inactives show at the top dose reporter change, positive = more light; 340,000 tested, under 10 active; AID 2288; active = well fitted rising curve with a large enough effect; inconclusive = small, poorly fitted or top-dose-only effect; inactive = no such curve, though single readings can be large or run the other way;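 also: % of control where 0% means no effect; miR-21 action dims this reporter so a rising signal means less miR-21 action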
#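 Compounds were titrated across several concentrations (up to approximately 40 uM) and incubated 48 hours with HeLa miR-21-FLuc reporter cells (miR-21 target sequence downstream of FLuc, endogenous miR-21). Readout was firefly luciferase luminescence after lytic detection reagent.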
# Active calls of the source: *; u = inconclusive; x = not tested or not shown. Not all compounds are listed, so the mix of outcomes need not match the whole.
SMILES,Rango release inh,Rango complex inh,GLA inh pH 4.5,miR-21 reporter
CCN(CC)S(=O)(=O)c1ccc2c(c1)nc(SCC(=O)N1CCOCC1)n2-c1ccccc1OC,3%,0.5%,5,-2%
Cn1c(=O)c2c(nc(N/N=C/c3cccnc3)n2Cc2ccc(F)cc2)n(C)c1=O,-19%,0.1%,2,4%
N#Cc1ccc(CSc2nnc(-c3cccnc3)o2)cc1,-4%,-0.8%,6,2%
CC(C)CCNC(=O)c1ccc2nc[nH]c2c1,11%,1.0%,1,-31%
CC1CC(C)(C)NC(=O)O1 (stereo not given),-12%,1.1%,5,-6%
O=C(CCCC(=O)N1CCCC1)N1CCCC1,1%,-1.7%,x,-22%
O=S(=O)(NC1CCCC1)c1cccc(S(=O)(=O)N2CCC(n3nnc4ccccc43)CC2)c1,-2%,-2.1%,-6,7%
CCN1CCN(C(c2cccc(OC)c2)c2sc3nc(C)nn3c2O)CC1 (stereo not given),1%,0.3%,4,1%
CC(C)Oc1ccc(C2CC(=O)N(Nc3ccc([N+](=O)[O-])cc3[N+](=O)[O-])C2=O)cc1 (stereo not given),18%,1.2%,-4,1%
Cn1c(-c2ccccc2)cc2c3no[n+]([O-])c3ccc21,2%,-0.9%,3,u
Cc1cccc(CCNC(=O)C2CCC(CNS(=O)(=O)c3cccs3)CC2)c1 (stereo not given),0%,-3.0%,2,3%
CC(C)c1ccc(NC(=O)COc2ccc(F)cc2C(=O)c2cnn(-c3ccccc3)c2)cc1,-6%,-3.4%,9,-70%
O=C(COc1ccc(/C=N/NS(=O)(=O)c2ccccc2)cc1)Nc1ccc(F)cc1,1%,-3.0%,-6,-16%
Cc1nc(Nc2ccccc2Cl)sc1C(=O)Nc1ccccc1,19%,-1.8%,-4,-42%
O=C(c1ccccc1NS(=O)(=O)c1ccc(Cl)cc1)N1CCc2ccccc21,63%,-2.8%,0,6%
O=C(CS(=O)(=O)c1ccccc1)Nc1ccc(S(=O)(=O)Nc2ccccn2)cc1,0%,3.0%,6,-5%
Cc1ccc(S(=O)(=O)N2CCSCCSCCSCCSCC2)cc1,-6%,0.8%,x,x
CCCCC(O)(CCCC)C(=O)NN(C(=O)OC)c1ccccc1,2%,3.4%,-3,6%
C=CCSC1=NC(N)=C(C#N)C2(CCCCC2)C1C(N)=O (stereo not given),35%,-2.4%,-10,-2%
Cc1nc([N+](=O)[O-])c(Br)n1CC(=O)c1ccc(Cl)cc1,13%,2.9%,-7,u
C=CCn1c(CCSCc2ccc(OC)c(C)c2)n[nH]c1=S,-22%,0.3%,-9,7%
CCN1CCN(c2nc3c(C)cccn3c(=O)c2/C=C(\C#N)S(=O)(=O)c2ccc(C)cc2)CC1,u,u,-4,-9%
CCOC(=O)C1=C(COc2ccccc2)NC(=O)NC1c1ccc(Cl)cc1 (stereo not given),11%,3.2%,x,1%
CC(=O)Nc1c(O)nc(SCC(=O)N2CCN(c3ccc(F)cc3)CC2)[nH]c1=O,-7%,1.6%,8,-6%
CN1C(=O)CC(c2ccccc2)CC1=O,16%,-6.3%,x,x
CC(C)OC(=O)CSc1nc2cccnc2n1C1CCCCC1,0%,-0.3%,-4,-2%
Cc1cc(C)c2c(C)c(C(=O)Nc3c(C)n(C)n(-c4ccccc4)c3=O)oc2c1,-5%,3.1%,7,4%
COC(=O)C[n+]1cccc2ccccc21,u,u,-1,2%
Cc1noc(C)c1C(=O)NCCCc1ccccc1,-8%,0.3%,-4,1%
CC1CCCN(C(=O)CN2C(=O)NC(C)(c3ccc4ccccc4c3)C2=O)C1 (stereo not given),19%,-1.2%,x,x

# Reformatted with values ahead of the structure: entries from further up.
Rango release inh,Rango complex inh,GLA inh pH 4.5,miR-21 reporter,smiles
0%,3.0%,6,-5%,O=C(CS(=O)(=O)c1ccccc1)Nc1ccc(S(=O)(=O)Nc2ccccn2)cc1
u,u,-1,2%,COC(=O)C[n+]1cccc2ccccc21
1%,-3.0%,-6,-16%,O=C(COc1ccc(/C=N/NS(=O)(=O)c2ccccc2)cc1)Nc1ccc(F)cc1
-6%,-3.4%,9,-70%,CC(C)c1ccc(NC(=O)COc2ccc(F)cc2C(=O)c2cnn(-c3ccccc3)c2)cc1
1%,-1.7%,x,-22%,O=C(CCCC(=O)N1CCCC1)N1CCCC1

# (continued)
SMILES,Rango release inh,Rango complex inh,GLA inh pH 4.5,miR-21 reporter
Cc1ccc(-n2nc(C)c(NC(=O)CCl)c2C)cc1,1%,-0.4%,-2,u
CCCCN1C=CC(=C2N=c3cccc([N+](=O)[O-])c3=N2)C=C1,-7%,0.2%,-1,-6%
CCOC(=O)c1sc(C)c2c1NC1(CCCCC1)NC2=O,0%,-2.2%,3,-14%
Cn1nc(C(C)(C)C)c([N+](=O)[O-])c1C(=O)Nc1ccccc1,-7%,2.1%,7,-3%
COc1ccc(NC(=O)c2oc3ccccc3c2NC(=O)COc2ccccc2OC)c(OC)c1,-2%,5.9%,6,-9%
CCCOc1cccc(C(=O)NCCNC(=O)c2ccco2)c1,4%,1.4%,x,-1%
CCCC1=C(C(=O)OCC)C(c2cccs2)C(C#N)=C(N)O1 (stereo not given),-8%,-5.3%,-7,1%
O=C(COC(=O)c1sc2ccccc2c1Cl)NCC1CCCCC1,2%,-3.4%,6,-4%
CSCCC(NC(=O)COc1ccccc1)C(=O)NCc1cccs1 (stereo not given),21%,-3.8%,x,1%
OC1(C#CCN2CCOCC2)CCCCC1,2%,-0.4%,-3,2%
CCOC(=O)c1ccc(-n2c(-c3ccco3)nc3ccccc3c2=O)cc1,-1%,-4.8%,2,-15%
Cc1ccc2cc(C3CC(c4ccco4)=NN3C(=O)CCC(=O)O)c(Cl)nc2c1 (stereo not given),-3%,0.6%,-10,-2%
Cc1ccccc1NC(=O)CCN1CCN(C)CC1,0%,-1.9%,x,1%
CN1C(C)(C)c2ccccc2OS1(=O)=O,33%,-1.7%,x,3%
COC(=O)C(CSCc1ccccc1)NC(=O)CSc1nc(N)cc(=O)[nH]1 (stereo not given),17%,-0.1%,1,0%
CCC(C)(C(=O)NC1CCCCC1)N(C(=O)c1cnccn1)c1c(C)n(C)n(-c2ccccc2)c1=O (stereo not given),18%,-0.2%,-6,-5%
O=C(CN1CCOCC1)NCc1ccc(F)cc1,5%,0.4%,x,1%
COc1ccc(/C=N/NC(=O)c2ccc(COc3cccc4cccnc34)cc2)cc1OC,-3%,-0.3%,9,3%
CC(C)Cn1c(N)c(C(=O)COC(=O)c2ccc3ccccc3n2)c(=O)n(C)c1=O,-4%,3.6%,0,1%
COc1cccc(C(=O)N2CCN(C(=O)C3CC3)CC2)c1,-8%,-2.1%,x,0%
O=C(CSc1ccc(-c2ccccc2)nn1)NCC1CCCO1 (stereo not given),10%,-0.4%,2,-8%
CCNS(=O)(=O)c1ccc(NC(=O)c2cc(C(F)(F)F)nn2C)cc1,-15%,-3.7%,-5,13%
CCCn1nnnc1NCc1cccn1C,-21%,-2.6%,-3,2%
Cc1ccc(C)c(NC(=O)c2cnccn2)c1,0%,1.1%,x,-11%
CC(C)Cc1nnc(NC(=O)CCN2C(=O)c3ccccc3C2=O)s1,54%,u,0,-1%
NC(=O)NCc1ccc(Cl)cc1,-10%,1.0%,-14,0%
CCOC(=O)c1nnn(-c2nonc2N)c1-c1cccs1,-26%,-4.4%,0,-4%
CC1CC(C)CN(S(=O)(=O)c2ccc(NN)nc2)C1 (stereo not given),5%,-2.1%,2,-4%
O=C1CC(c2ccccc2)C(=O)N1c1cccc(O)c1 (stereo not given),-2%,-1.9%,-19,-1%
Cc1nc(NC(=O)CSc2nnc3ccccn23)c(Cl)cc1Cl,11%,-1.8%,-6,-12%

# An excerpt taken from the entries so far, as a working copy:
SMILES,Rango release inh,Rango complex inh,GLA inh pH 4.5,miR-21 reporter
CCNS(=O)(=O)c1ccc(NC(=O)c2cc(C(F)(F)F)nn2C)cc1,-15%,-3.7%,-5,13%
CCCn1nnnc1NCc1cccn1C,-21%,-2.6%,-3,2%
Cc1ccc(C)c(NC(=O)c2cnccn2)c1,0%,1.1%,x,-11%
CC(C)Cc1nnc(NC(=O)CCN2C(=O)c3ccccc3C2=O)s1,54%,u,0,-1%
NC(=O)NCc1ccc(Cl)cc1,-10%,1.0%,-14,0%
CCOC(=O)c1nnn(-c2nonc2N)c1-c1cccs1,-26%,-4.4%,0,-4%
CC1CC(C)CN(S(=O)(=O)c2ccc(NN)nc2)C1 (stereo not given),5%,-2.1%,2,-4%

# (more compounds)
SMILES,Rango release inh,Rango complex inh,GLA inh pH 4.5,miR-21 reporter
O=C1N/C(=N\c2ccccn2)SC1Cc1ccc(Cl)cc1 (stereo not given),7%,-0.3%,6,-8%
O=C(C1CCN(S(=O)(=O)c2ccc(Br)s2)CC1)N1CCN(C2CCCCC2)CC1,8%,-0.3%,-9,3%
CC(C)(C)NC(=O)NC(=O)COC(=O)CCCc1c[nH]c2ccccc12,-2%,1.6%,-5,0%
Cc1cc(-n2cnc3c(=O)[nH]cnc32)ccc1N,13%,-1.2%,-7,-5%
Nc1cccc(-c2c[nH]c3ncc(-c4cccnc4)cc23)c1,1%,0.2%,x,x
N#Cc1c(NC(=O)Cn2nc(C(F)(F)F)c3c2CCCC3)sc2c1CCC2,3%,-0.1%,-19,1%
Nn1c(SCC(=O)Nc2ccccc2F)nnc1-c1cccs1,25%,1.7%,x,x
COC(=O)c1ccccc1NC(=O)CSc1nnc(-c2ccc(C)cc2)o1,x,x,-6,-45%
Cc1ccccc1C(=O)NC(CC(C)C)C(=O)Nc1ccc(F)c([N+](=O)[O-])c1 (stereo not given),25%,u,8,1%
COc1ccc(N2CCN(C(=O)CSc3ncn[nH]3)CC2)cc1,-3%,-0.8%,x,x
COCc1nnc(NC(=O)CS(=O)(=O)c2ccc(C)cc2)s1,0%,-3.6%,x,0%

# Structural class: the compounds so far containing a CF3 group
SMILES,Rango release inh,Rango complex inh,GLA inh pH 4.5,miR-21 reporter
CCNS(=O)(=O)c1ccc(NC(=O)c2cc(C(F)(F)F)nn2C)cc1,-15%,-3.7%,-5,13%
N#Cc1c(NC(=O)Cn2nc(C(F)(F)F)c3c2CCCC3)sc2c1CCC2,3%,-0.1%,-19,1%
